Assay outcomes as filed in PubChem.
Sa RN4220 lethal = growth inhibition of S. aureus RN4220, primary screen, OD600 | 16 h | inhibition, % (no concentration beside the values) | 330,000 tested, 0.33% active | AID 1259311, 2017;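 active = z-score of -3 or lower and OD600 up to 0.18 on both plates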;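 note: plate controls were untreated cells for no effect and reference antibiotic for full effect; stock transfer was 100 nL into about 80 µL; one replicate is shown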
BJeLR lethal = MLPCN primary cell-based screen for lethality selective to Ras in HRASV12 cells; inhibition, % (no concentration beside the values); BJeLR (HRASV12) viability, CellTiter-Glo ATP luminescence, 48 h; reference of the scale not given here; 300,000 tested, 0.17% active;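 active = replicate mean above 50%; inconclusive = above 50% but judged a plate artefact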;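 note: 50 nL library stock added to about 25 µL; numbers are from one replicate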
Sa ugtP lethal = growth inhibition of ugtP-null S. aureus, primary screen, RN4220 ugtP deletion, OD600; 16 h; some inactives read as strong as hits; 330,000 tested, 0.54% active; AID 1259309, 2017; growth inhibition, % (test concentration not listed);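 active = z-score under -3 and OD600 up to 0.15 on both plates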;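 note: plate controls were untreated wells for no effect and antibiotic for full effect; wells of about 80 µL received 100 nL stock; the first replicate is given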
Mtb hypoxia inh = PubChem AID 1159583; M. tuberculosis hypoxia-regulated fluorescent reporter, fluorescence; fluorescence inhibition, % (test concentration not listed); 300,000 tested, 0.1% active;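 active = 35 to 45% if threefold the growth effect, above 45% if 1.5-fold the growth effect; inactive = the rest, general growth blockers included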;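 note: wells of about 50 µL received 100 nL stock; 0% = vehicle wells and 100% = reference inhibitor wells; whole bacteria with a GFP reporter of the hypoxia response; strong numbers were not always called active; many hits fall short of the cut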
Autofluor counter = counter-screen for toxin protease inhibitors: compound fluorescence | compound autofluorescence counterscreen, microsphere flow cytometry; active compounds read high | fluorescence intensity (no concentration beside the values) | 360,000 tested, 3.1% active | AID 624483;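 active = at least 3 SD above the mean of all compounds, about 16000 in these data; inconclusive = too few beads counted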;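 note: 100 nL of 1 mM stock went into each well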
PrP 5UTR inh = inhibition of PrP 5' UTR reporter expression; inhibition, % (no concentration beside the values); cell-based PrP 5' UTR mRNA reporter, plate reader; 340,000 tested, 0.35% active; AID 488862, 2010;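 active = every replicate at 50% or more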;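 note: 0 = median of the neutral control wells; tested in H4 reporter cells; numbers are from one replicate; inactives centre near -14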
Mtb hypoxia inh growth = second read-out of Mtb hypoxia inh, no call of its own (marks repeat the call); growth inhibition, %; measured here: M. tuberculosis growth (absorbance);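 0% = vehicle and 100% = reference antibiotic; read after six days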
* hit, by the source's call; ? = inconclusive; . = no result given; & = joins results of further samples.

Sample of the layout, 17 compounds:
SMILES	Sa RN4220 lethal	BJeLR lethal	Sa ugtP lethal	Mtb hypoxia inh	Mtb hypoxia inh growth	Autofluor counter	PrP 5UTR inh
Nc1ncnc(Nc2cc(C(F)(F)F)cc(C(F)(F)F)c2)n1	6.2	-9	-1	4	23	7092	-30
CCCOC(=O)c1ccc(NC(=O)c2cc(OC)c(OC)c(OC)c2Br)cc1	-0.4	-3	-5	3	1	15970	0
COc1ccc(NC(=O)CN2C(=O)c3cccc4cccc2c34)c(OC)c1	6.8	1	2	6	9	3404	-11
Cc1cccc(NC(=O)CNC(=O)c2cn(Cc3ccccc3)nc2-c2cccnc2)c1C	6.7	.	10	0	-10	2916	-8
CCOc1ccc(Br)cc1S(=O)(=O)NCCN1CCCC1	5.3	-2	11	1	0	3743	-21
CC(NC(=O)c1cccc(S(=O)(=O)N2CCN(C)CC2)c1)C1CC2CCC1C2 (stereo unspecified)	4.7	-31	4	17	5	4503	-10
COCCC(=O)N1CCCC(CCC(=O)NCc2ccc(F)c(F)c2)C1 (stereo unspecified)	-0.2	0	3	2	2	3136	-12
Cc1ccc(NC(=O)c2nc[nH]c2C(=O)NC(C)c2ccccc2)cc1 (stereo unspecified)	-1.3&-20	.	-9&-18	3&-5	-5&6	.	.
Cc1cccc(OCc2nnc(N)s2)c1C	-1.8	-3	-2	.	.	3639	-24
CCOC(=O)c1ccc(-n2c(CC)nc3ccccc3c2=O)cc1	-0.6	2	0	3	-3	.	.
Cc1oc2ccc(NS(=O)(=O)c3ccccc3)cc2c1C(=O)Nc1ccccc1	2.0	4	-4	-11	4	2513	-14
Cc1cccc(CC(C)NC(=O)CCc2nnc(-c3ccccc3)o2)n1 (stereo unspecified)	3.3	0	1	17	6	5007	-11
Cc1nc(S(=O)(=O)c2ccc(Cl)cc2Cl)nc2c1CCC2	7.1	-1	1	11	9	2514	-15
O=C(NC1CCC(O)CC1)c1cccc2cccnc12 (stereo unspecified)	-5.4	4	-8	-1	-16	4332	-15
CC(NC(=O)c1ccc(C(F)(F)F)cc1)C(c1ccccc1)N1CCOCC1 (stereo unspecified)	-1.3	-2	14	-5	4	2042	-24
O=S1(=O)CC/C(=N/Nc2ccccn2)c2cc(F)ccc21	.	-7	.	.	.	5228	-19
C/C=C\C=C/C(=O)Nc1cccc(C2=NOC3(C2)C[C@@H](C(N)=O)N(C(=O)C2(C)CC2)C3)c1 (stereo partly specified)	.	-5	.	.	.	3086	-25

All compounds of this part (from the top)
SMILES	Sa RN4220 lethal	BJeLR lethal	Sa ugtP lethal	Mtb hypoxia inh	Mtb hypoxia inh growth	Autofluor counter	PrP 5UTR inh
Nc1ncnc(Nc2cc(C(F)(F)F)cc(C(F)(F)F)c2)n1	6.2	-9	-1	4	23	7092	-30
CCCOC(=O)c1ccc(NC(=O)c2cc(OC)c(OC)c(OC)c2Br)cc1	-0.4	-3	-5	3	1	15970	0
COc1ccc(NC(=O)CN2C(=O)c3cccc4cccc2c34)c(OC)c1	6.8	1	2	6	9	3404	-11
Cc1cccc(NC(=O)CNC(=O)c2cn(Cc3ccccc3)nc2-c2cccnc2)c1C	6.7	.	10	0	-10	2916	-8
CCOc1ccc(Br)cc1S(=O)(=O)NCCN1CCCC1	5.3	-2	11	1	0	3743	-21
CC(NC(=O)c1cccc(S(=O)(=O)N2CCN(C)CC2)c1)C1CC2CCC1C2 (stereo unspecified)	4.7	-31	4	17	5	4503	-10
COCCC(=O)N1CCCC(CCC(=O)NCc2ccc(F)c(F)c2)C1 (stereo unspecified)	-0.2	0	3	2	2	3136	-12
Cc1ccc(NC(=O)c2nc[nH]c2C(=O)NC(C)c2ccccc2)cc1 (stereo unspecified)	-1.3&-20	.	-9&-18	3&-5	-5&6	.	.
Cc1cccc(OCc2nnc(N)s2)c1C	-1.8	-3	-2	.	.	3639	-24
CCOC(=O)c1ccc(-n2c(CC)nc3ccccc3c2=O)cc1	-0.6	2	0	3	-3	.	.
Cc1oc2ccc(NS(=O)(=O)c3ccccc3)cc2c1C(=O)Nc1ccccc1	2.0	4	-4	-11	4	2513	-14
Cc1cccc(CC(C)NC(=O)CCc2nnc(-c3ccccc3)o2)n1 (stereo unspecified)	3.3	0	1	17	6	5007	-11
Cc1nc(S(=O)(=O)c2ccc(Cl)cc2Cl)nc2c1CCC2	7.1	-1	1	11	9	2514	-15
O=C(NC1CCC(O)CC1)c1cccc2cccnc12 (stereo unspecified)	-5.4	4	-8	-1	-16	4332	-15
CC(NC(=O)c1ccc(C(F)(F)F)cc1)C(c1ccccc1)N1CCOCC1 (stereo unspecified)	-1.3	-2	14	-5	4	2042	-24
O=S1(=O)CC/C(=N/Nc2ccccn2)c2cc(F)ccc21	.	-7	.	.	.	5228	-19
C/C=C\C=C/C(=O)Nc1cccc(C2=NOC3(C2)C[C@@H](C(N)=O)N(C(=O)C2(C)CC2)C3)c1 (stereo partly specified)	.	-5	.	.	.	3086	-25
Cc1ccc(S(=O)(=O)N2CCCC(C(=O)NC3=NCCS3)C2)cc1 (stereo unspecified)	8.3	-6	6	4	0	2486	-17
O=S(=O)(c1cccc2cccnc12)N(CCO)CCO	6.4	1	11	.	.	5352	-2
O=C(NCc1ccc(Cl)cc1)C1CCCN(c2cnccn2)C1 (stereo unspecified)	3.3	8	2	-4	-8	4495	-17
Cc1ccc2nc(-c3ccc(NC(=O)COCC(=O)O)cc3)sc2c1	-0.6	7	-15	-2	-10	4192	-36
COc1ccc(Nc2nc(N)nc(CSc3nccc(C)n3)n2)cc1	-0.9	-3	-9	8	18	4550	-16
CC(C)(C)NCC(O)COc1cccc2[nH]c(=O)[nH]c12 (stereo unspecified)	7.8	4	1	1	10	5694	-14
CCC(=O)Nc1cccc(-n2nnnc2SCC(=O)N(C(C)C)C(C)C)c1	1.3	6	6	3	-1	4301	2
O=C(CSc1nc2ccccc2c(=O)[nH]1)Nc1ccc(N2CCOCC2)c(Cl)c1	5.1	-5	9	15	-1	3963	-23
O=C(O)CCCNC(=O)CCn1nnc2ccccc2c1=O	4.9	-1	-1	10	6	4894	.
C/C(=N\NC(=O)CN1CCN(Cc2ccc(C)cc2)CC1)c1ccncc1	.	-8	.	.	.	2613	-10
CCCCc1n[nH]c2c1/C(=N/OCC)CC(C)(C)C2	.	-13	.	.	.	6060	-15
COc1ccc(C2/C(=C(/O)c3ccc(S(=O)(=O)N4CCOCC4)cc3)C(=O)C(=O)N2CCN2CCOCC2)cc1 (stereo unspecified)	-2.6	2	0	5	-2	3747	-17
Cc1nc(SCc2ccc(F)cc2)n[nH]1	0.3	-29	1	3	-3	3904	-25
O=C(COc1ccc([N+](=O)[O-])cc1)NCCc1nc2ccccc2[nH]1	2.9	-7	1	1	-1	4377	-13
CC(=NNC(=O)Cn1cc([N+](=O)[O-])cn1)c1ccc(O)cc1	5.8	.	9	4	-5	.	.
COc1ccc(N2CCN(CCN3C(=O)c4ccccc4C3=O)CC2)cc1	3.3	-13	1	10	-3	4076	-22
c1ccc(Cn2nnc3c(NCCN4CCOCC4)ncnc32)cc1	1.8	-1	4	3	5	22975*	-2
O=C(NC1CCOC1)c1ccc(OC2CCN(CCc3ccccc3)CC2)cc1 (stereo unspecified)	3.4	7	3	12	-3	4182	-19
C=C(C)Cn1cnc2cc(C)c(C)cc21	16	12	-61	9	10	4406	-3
Oc1cccc(/C=N/c2c(-c3ccco3)nc3ccccn23)c1	.	6	.	.	.	7136	-77
COC(=O)c1coc(-c2ccc(OC)cc2)c1C(=O)OC	9.4	-4	-2	.	.	2757	-41
CC(=O)c1cccc(NC(=O)c2noc3c2CCc2ccccc2-3)c1	-1.9	4	0	17	11	4369	-49
CN1CCC(N(C)C(=S)NC(=O)C23CC4CC(CC(C4)C2)C3)CC1	-2.8	9	-1	4	15	2106	0
CC1(C)C2CCC13CS(=O)(=O)N[C@@H]3C2 (stereo partly specified)	-0.5	1	3	.	.	4134	-5
COc1ccc(CCNC(=O)c2ccccc2Cl)cc1OC	6.3	6	4	5	0	4294	-24
CCSc1nnc(NC(NC(=O)c2ccco2)(C(F)(F)F)C(F)(F)F)s1	-9.1	-3	-2	15	8	2966	-9
Cc1cc(C)c(S(=O)(=O)NCC(=O)NCc2ccco2)c(C)c1	3.2	-13	2	-2	-2	4694	-2
COc1ccc(CN(C)C(=O)c2ccc(OCC(=O)Nc3cccc(C(F)(F)F)c3)c(OC)c2)c(OC)c1	2.1	1	-11	4	0	?	-16
CC(C(=O)O)C1C[C@]1(C)C(NC(=O)OCc1ccccc1)c1ccccc1 (stereo partly specified)	7.6	.	-7	4	5	.	.
O=c1oc2c3c4c(cc2c(C(F)(F)F)c1CCN1CCOCC1)CCCN4CCC3	1.9	0	6	-1	7	5181	-4
CC1(C)CC(=O)c2cc(C(=O)NCc3ccco3)c(=O)n(-c3ccccc3)c2C1	7.4	-8	3	9	12	3053	-17
Clc1cccc(-c2noc3ncnc(Nc4ccc5c(c4)OCO5)c23)c1	8.5	-1	-11	5	4	3975	7
COc1ccc(NC(=S)N/C(=N/CS(=O)(=O)c2ccccc2)c2ccccc2)cc1	.	2	.	.	.	11112	-27
Cc1ccc(CN2CCN(Cc3cc4ccccc4o3)CC2CCO)cc1 (stereo unspecified)	3.7	-19	3	11	7	3835	-17
Cc1cccc(C)c1NC(=O)NCCSc1snnc1C	0.8	0	9	8	5	4317	19
O=C1OCC2=C1C(c1ccc(Cl)cc1)CC(=O)N2c1ccc(F)cc1 (stereo unspecified)	11	-25	1	6	2	3995	-46
COc1cccc2cc(C(=O)NCc3ccc(Cl)cc3)c(=O)oc12	4.8	-4	2	-6	-8	3045	-13
CC(=O)NCC(=O)OC(C(=O)c1ccccc1)c1ccc(Cl)cc1 (stereo unspecified)	3.2	-1	3	6	14	10917	-13
N=C(N)Sc1nc(N2CCCCC2)nc(N2CCCCC2)n1	4.1	6	8	16	-4	6360	-4
CC1(C)CC(=O)C/C(=N\NC(=O)C2CC2c2ccccc2)C1 (stereo unspecified)	.	4	.	.	.	4506	-36
Cc1nc2ccccc2nc1OCc1ccccc1	12	-2	28	-2	2	1941	-23
O=C(CSc1nc2cc(Cl)ccc2o1)N1CCOCC1	-4.8	15	12	.	.	2064	-5
Cc1cccc(NC(=S)N(CCCN2CCCC2)Cc2cccn2Cc2ccc(Cl)cc2)c1	-1.4	14	12	4	6	4823	-22

(continued)
SMILES	Sa RN4220 lethal	BJeLR lethal	Sa ugtP lethal	Mtb hypoxia inh	Mtb hypoxia inh growth	Autofluor counter	PrP 5UTR inh
N#C/C(=C\c1c(N2CCN(c3ccccc3)CC2)nc2ccccn2c1=O)C(N)=O	-0.7	13	-2	4	1	4091	-30
CN1C[C@@H]2C[C@@H](C3=Cc4cc(Cl)ccc4OC3)N3CCC[C@@]23C1=O	7.5	-8	7	2	5	5053	-10
COc1ccc(/C=C2\SC(=S)N(C(Cc3ccccc3)C(=O)O)C2=O)cc1 (stereo unspecified)	11	2	16	-4	7	4474	-15
O=C(COc1ccc(Cl)cc1)Nc1ccc2[nH]ncc2c1	-4.4	-3	-4	-7	-8	3810	-8
CN(C)CCN(C(=O)c1ccc2c(c1)CCCC2)c1nc2cc3c(cc2s1)OCCO3	-3.7	4	6	10	2	6457	-6
CCOC(=O)c1ccc(NC(=O)CSc2nnc(-c3cccs3)n2CC)cc1	4.4	-7	-13	4	6	10605	-5
CCOCCOC(=O)C1=C(C)N(C)C(=O)NC1c1cc(Cl)c(O)c(OC)c1 (stereo unspecified)	6.4	2	12	-1	4	3362	2
Cc1cc(C(=O)NC2CC2)c2ccccc2n1	3.7	11	6	-1	11	4008	-15
